Screens (PubChem)
Mtb hypoxia rep – reduces hypoxia-regulated biosensor signal in M. tuberculosis; fluorescence inhibition, % (concentration not given with the values); M. tuberculosis hypoxia-regulated fluorescent reporter, fluorescence; 300,000 tested, 0.1% active;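 active = 35 to 45% if threefold the growth effect, above 45% if 1.5-fold the growth effect; inactive = the rest, general growth blockers included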;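 also: wells of about 50 µL received 100 nL stock; 0% = vehicle wells and 100% = reference inhibitor wells; whole bacteria with a GFP reporter of the hypoxia response; strong numbers were not always called active; many hits fall short of the cut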
Autofluor counter – compound fluorescence in toxin protease inhibitor counterscreen; fluorescence intensity (test concentration not listed); compound autofluorescence counterscreen, microsphere flow cytometry; active compounds read high; 360,000 tested, 3.1% active; AID 624483;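 active = at least 3 SD above the mean of all compounds, about 16000 in these data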;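 also: 100 nL of 1 mM stock went into each well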
PrP 5UTR inh – suppresses PrP 5' UTR mRNA reporter expression | cell-based PrP 5' UTR mRNA reporter, plate reader | inhibition, % (no concentration beside the values) | 340,000 tested, 0.35% active;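 active = every replicate at 50% or more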;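 also: 0 = median of the neutral control wells; tested in H4 reporter cells; numbers are from one replicate; inactives centre near -14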
ugtP null kill – growth inhibition of S. aureus ugtP deletion strain. S. aureus RN4220 ugtP deletion, OD600 growth, 16 h; some inactives read as strong as hits. growth inhibition, % (concentration not given with the values). 330,000 tested, 0.54% active. AID 1259309;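 active = z-score under -3 and OD600 up to 0.15 on both plates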;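 also: plate controls were untreated wells for no effect and antibiotic for full effect; wells of about 80 µL received 100 nL stock; the first replicate is given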
BJeLR lethal – BJeLR cell viability loss. BJeLR (HRASV12) viability, CellTiter-Glo ATP luminescence, 48 h; reference of the scale not given here. inhibition, % (test concentration not listed). 300,000 tested, 0.17% active;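 active = replicate mean above 50%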;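 also: 50 nL library stock added to about 25 µL; numbers are from one replicate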
Sa RN4220 lethal – S. aureus RN4220 growth inhibition; OD600, 16 h; 330,000 tested, 0.33% active; inhibition, % (no concentration beside the values);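 active = z-score of -3 or lower and OD600 up to 0.18 on both plates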;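 also: plate controls were untreated cells for no effect and reference antibiotic for full effect; stock transfer was 100 nL into about 80 µL; one replicate is shown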
Mtb hypoxia rep growth – also measured in Mtb hypoxia rep; calls as there; growth inhibition, %; measured here: M. tuberculosis growth (absorbance);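 0% = vehicle and 100% = reference antibiotic; read after six days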
Active calls of the source: *; nt = not tested or not shown.

Short forms: A = Mtb hypoxia rep; B = Mtb hypoxia rep growth; C = Autofluor counter; D = PrP 5UTR inh; E = ugtP null kill; F = BJeLR lethal; G = Sa RN4220 lethal
1) CN(Cc1ccccc1)c1nc2c(c(=O)[nH]c(=O)n2C)n1Cc1ccccc1
  A = 5; B = 6; C = 10307; D = -13; E = -4; F = 8; G = -2.1

2) COC(=O)CNC(=O)CCCCC(=O)NCC(=O)OC
  A = -2; B = 5; C = 11296; D = -16; E = -1; F = -2; G = 2.6

3) O=C(CSc1nnc(-c2ccc(C(F)(F)F)cn2)s1)c1ccc(Cl)cc1
  A = 4; B = 8; C = 6216; D = -14; E = 0; F = -9; G = 5.7

4) Cc1cc2c(cc1C)-c1nnnn1C(C)(C)C2
  A = 5; B = 7; C = 9810; D = -19; E = 2; F = -3; G = 1.9

5) CCOc1ccc2c(O)csc2c1
  A = 8; B = 7; C = 3377; D = -16; E = -6; F = -11; G = -18

6) COc1ccccc1OCCNC(=O)CCS(=O)(=O)c1ccccc1
  A = 2; B = 0; C = nt; D = -6; E = 1; F = nt; G = 4.0

7) Cc1[nH]nc(-c2ccc(O)c(C)c2O)c1Oc1ccccc1
  A = 7; B = -2; C = nt; D = -2; E = -16; F = 0; G = 0.4

8) C=CCOC(=O)Nc1c(C(=O)OC)[nH]c2ccc(Cl)cc12
  A = nt; B = nt; C = 2039; D = -2; E = -22; F = -4; G = -2.9

9) Cc1cc(OCCSc2nnc(-c3cccs3)n2C)ccc1Cl
  A = 5; B = 11; C = 4625; D = 7; E = -8; F = 17; G = 14

10) Cc1ccc(-c2cc(N)n[nH]2)cc1
  A = 11; B = 3; C = 6202; D = -22; E = 16; F = -4; G = 7.6

11) CCC1C(O)CC2CCN3C(=O)CCCC1C23 (stereo unspecified)
  A = 14; B = 2; C = nt; D = nt; E = -3; F = nt; G = 10

12) CC1(C)CC(=O)c2cc(OCC(=O)NCCCN3CCN(c4ccccc4F)CC3)ccc2O1
  A = 0; B = 4; C = 11826; D = -1; E = 19; F = 0; G = 5.6

13) CN(CCO)S(=O)(=O)c1ccc2c(c1)C(=NO)c1cc(S(=O)(=O)N(C)CCO)ccc1-2
  A = 25; B = 11; C = 4445; D = -13; E = 3; F = nt; G = 2.1

14) COCCc1nc2ccc(C(=O)N(C)Cc3cccc(-n4nc(C)cc4C)c3)cc2o1
  A = 18; B = 2; C = 5626; D = -2; E = 2; F = -3; G = 4.2

15) O=C1[C@@H](Oc2ccccc2)[C@@H](c2cnc3ccccc3c2)N1c1ccccc1
  A = -3; B = 2; C = 3701; D = 2; E = -10; F = nt; G = 0.9

16) COc1ccc(OC)c(N2C(=O)CC(Cc3ccc(C)cc3)C2=O)c1 (stereo unspecified)
  A = -1; B = 4; C = 3890; D = -15; E = 9; F = 0; G = -3.0

17) c1coc(CNc2ncnc3[nH]ncc23)c1
  A = -2; B = -8; C = 3551; D = -6; E = 0; F = 3; G = -1.1

18) COc1ccccc1NC(=O)CSc1nnc(NC(=O)C2CC2)s1
  A = 10; B = -3; C = 4265; D = -6; E = 18; F = -2; G = -0.2

19) C[n+]1cccc(/C=N/NC(=O)CC23CC4CC(CC(C4)C2)C3)c1
  A = nt; B = nt; C = 4233; D = -16; E = nt; F = -5; G = nt

20) CCN1C(=O)/C(=C\N(C)C)NC1=S
  A = -3; B = 1; C = 2573; D = -33; E = 2; F = -5; G = -1.7

21) Cc1c(C(=O)OCC(=O)Nc2ccc(C(N)=O)cc2)cccc1[N+](=O)[O-]
  A = -2; B = -1; C = 2440; D = 25; E = -2; F = 2; G = -3.5

22) Cc1ccc(C2CC(=O)NC(SCC(N)=O)=C2C#N)s1 (stereo unspecified)
  A = 7; B = -4; C = 3328; D = -1; E = 6; F = -7; G = 2.1

23) CC(C)NC(=O)c1ccccc1NC(=O)CCS(=O)(=O)Cc1ccccc1
  A = 16; B = 10; C = 4334; D = -25; E = 2; F = 6; G = 3.4

24) Nc1nc(NC(=O)c2cccnc2)nn1-c1ccccc1
  A = 5; B = 12; C = 3037; D = -23; E = -2; F = 1; G = -4.7

25) O=C(NCC(=O)N1CCN(S(=O)(=O)c2ccc3c(c2)OCCO3)CC1)c1ccccc1F
  A = -4; B = 3; C = 3416; D = -16; E = 3; F = nt; G = -0.7

26) COc1ccc(N(CC(=O)N/N=C/c2ccc(OC3CSC3)cc2)S(=O)(=O)c2ccccc2)cc1
  A = nt; B = nt; C = 2501; D = -21; E = nt; F = -22; G = nt

27) CCOC(=O)c1ccc(NC(=O)CSc2nc3c(c(=O)n2CC)SC(C)C3)cc1 (stereo unspecified)
  A = -4; B = -3; C = 5791; D = -16; E = 7; F = 2; G = -0.8

28) CCOc1cc(CN2CCOCC2)cc(C(C)=O)c1
  A = nt; B = nt; C = 5703; D = -6; E = 2; F = 1; G = 0.4

29) Cc1cc(-c2nnc(SCC(=O)Nc3c(C)cccc3C)n2N)n[nH]1
  A = 11; B = 8; C = 5059; D = 6; E = 8; F = -10; G = 5.1

30) CC(C)(C)n1nc2c(c1NC(=O)c1ccc(Br)o1)CS(=O)C2 (stereo unspecified)
  A = nt; B = nt; C = 4143; D = -16; E = 17; F = 18; G = 2.3

31) CC1CN(C(C)CO)C(=O)c2cc(NC(=O)C3CCCCC3)ccc2OC1CN(C)C(=O)Nc1ccc2c(c1)OCO2 (stereo unspecified)
  A = -7; B = 5; C = nt; D = nt; E = -12; F = nt; G = -1.3

32) Cc1c(-c2cccc(Cl)c2)nc2ccccc2c1C(=O)OC/C(O)=C(\C#N)c1nc2ccccc2[nH]1
  A = nt; B = nt; C = 4698; D = -99; E = nt; F = -19; G = nt

33) COc1ccc2[nH]c(=O)c(COC(=O)c3ccco3)cc2c1
  A = -2; B = 13; C = 3568; D = -10; E = -19; F = -2; G = 0.9

34) O=C(Nc1ncc(Cc2ccc(SC(F)F)cc2)s1)c1ccc(OC(F)F)cc1
  A = 1; B = -6; C = 2490; D = 37; E = -8; F = 32; G = 1.1

35) O=S(=O)(Nc1nnc(C2CC2)s1)c1ccccc1
  A = 7; B = 8; C = 3742; D = -8; E = -2; F = -7; G = 1.4

36) COc1cc(C(=O)N2CCN(C(=O)CC(C)C)CC2)cc(OC)c1OC
  A = 7; B = 7; C = 7013; D = -4; E = 19; F = 9; G = 9.3

37) O=C(NC1CCOc2ccccc21)c1ccccn1 (stereo unspecified)
  A = 26; B = 29; C = 5390; D = -24; E = 11; F = 0; G = 0.1

38) CC(C)CNS(=O)(=O)c1ccc(Br)cc1N1CCC[C@@H]1CO
  A = -1; B = -1; C = 3945; D = -12; E = -1; F = nt; G = 3.7

39) C=CCn1c(SCC(=O)Nc2cc(C)on2)nc2sc3c(c2c1=O)CCCC3
  A = 2; B = -5; C = 4146; D = -2; E = 3; F = nt; G = 6.1

40) COc1ccc(CN2CCC(C(N)=O)CC2)cc1OCc1ccccc1
  A = 3; B = -5; C = 3993; D = -22; E = 0; F = -2; G = 1.7

41) Cc1ccc(Nc2nc(N)nc(CN3CCN(Cc4ccc5c(c4)OCO5)CC3)n2)cc1Cl
  A = -1; B = 13; C = 23185*; D = -1; E = -20; F = -14; G = -0.9

42) COc1ccc(C2C/C(=N\O)C(C)(C)O2)cc1 (stereo unspecified)
  A = nt; B = nt; C = 5576; D = -9; E = nt; F = 5; G = nt

43) COC(=O)c1cccc(Cn2c(Cl)c(C=NNC(=O)c3ccccc3Cl)sc2=O)c1
  A = -3; B = 3; C = nt; D = nt; E = -6; F = nt; G = 5.5

44) CCC1=NN(C(=O)c2cccnc2)C(O)(C(F)(F)F)C1 (stereo unspecified)
  A = 4; B = 4; C = 2568; D = -27; E = 5; F = 13; G = 2.8

45) Cc1ccc(-n2c(N)c(-c3nc4ccccc4n3C)sc2=S)cc1
  A = -3; B = -1; C = 8105; D = -79; E = -4; F = -8; G = 1.0

46) CCOc1ccccc1NC(=O)N1CCC(NC(=O)C2CCCCC2)CC1
  A = -4; B = 0; C = 3637; D = -17; E = 19; F = -14; G = 4.9

47) Cc1ccc(SCC(=O)NCCN2C(=O)CSC2=O)c(C)c1
  A = nt; B = nt; C = 2956; D = -6; E = -2; F = -16; G = -1.1

48) Cn1c(SCC(=O)c2ccccc2)nnc1-c1cccc(N)c1
  A = nt; B = nt; C = 2663; D = -34; E = 0; F = -8; G = -2.8

49) Cc1nc(SCC(O)CO)c([N+](=O)[O-])[nH]1 (stereo unspecified)
  A = nt; B = nt; C = 2878; D = -10; E = 6; F = 4; G = 1.8

50) COc1ccccc1CNC(=O)C1CCCN(c2cnccn2)C1 (stereo unspecified)
  A = 2; B = -7; C = nt; D = -21; E = 4; F = 6; G = 1.1

Going on with the list.
Short forms: A = Mtb hypoxia rep; B = Mtb hypoxia rep growth; C = Autofluor counter; D = PrP 5UTR inh; E = ugtP null kill; F = BJeLR lethal; G = Sa RN4220 lethal
51) Fc1ccccc1Nc1ncnc2c1nnn2Cc1ccccc1
  A = 20; B = 12; C = 3623; D = -6; E = 5; F = 2; G = 1.7

52) Cc1ccc(C)c(NC(=O)C2CCCN(S(=O)(=O)c3c(C)noc3/C=C/N(C)C)C2)c1 (stereo unspecified)
  A = 12; B = 7; C = 4008; D = -17; E = 9; F = 9; G = 3.0

53) COc1ccc(-c2cc(-c3ccccc3)n[nH]2)c(O)c1
  A = -18; B = -10; C = 4139; D = -63; E = -14; F = -1; G = -4.9

54) COc1ccc(S(=O)(=O)Cc2ccc(C(=O)NCc3ccco3)o2)cc1
  A = nt; B = nt; C = 6635; D = -2; E = 7; F = -20; G = -2.9

55) Cc1cc(NC(=O)CNC(=O)C2CCCCC2)no1
  A = 9; B = 6; C = 4154; D = -44; E = 5; F = nt; G = 1.8

56) O=c1[nH]c(=S)n(-c2cccc(Cl)c2)c(O)c1C=NCCN1CCNCC1
  A = 6; B = 2; C = 3621; D = -20; E = 6; F = -5; G = 0.3

57) Cc1c(NC(=O)C(C)OC(=O)c2ccc(Br)o2)c(=O)n(-c2ccccc2)n1C (stereo unspecified)
  A = 12; B = 16; C = 4341; D = -12; E = 4; F = -7; G = 13

58) COc1ccc(Cl)cc1NS(=O)(=O)c1cccc(C(=O)NC2CCN(Cc3ccccc3)CC2)c1
  A = 3; B = 0; C = 3285; D = -16; E = 1; F = nt; G = 1.2

59) OCCCCCNc1ncnc2ccccc12
  A = nt; B = nt; C = 2471; D = -35; E = 3; F = 0; G = -4.8

60) COc1cc(NC(=O)c2ccc(C)c([N+](=O)[O-])c2)ccc1NC(=O)c1ccco1
  A = 1; B = -4; C = nt; D = nt; E = 4; F = 5; G = 3.4

61) CCC(c1nnc(SCC(=O)N2CC3(C)CC2CC(C)(C)C3)o1)N(C)C (stereo unspecified)
  A = 5; B = 2; C = 6154; D = -13; E = 8; F = 1; G = 2.1
